Compound activity from PubChem.
TRPML1 agonist: activates the human TRPML1 channel; AID 624414; hit rate 0.12% among 410,000; activation, % (concentration not given with the values); Q9GZU1; TRPML1-expressing cells, Ca2+ dye fluorescence, FDSS; host cell line not named in the record; reference of the full effect not given here; in the data active = activation above about 50%; inconclusive = about 30% to 50%; inactive = below about 30%; note: 0% is about no effect; the text of the record puts the active cut at 80%
Target sequence (Q9GZU1 whole entry, looked up): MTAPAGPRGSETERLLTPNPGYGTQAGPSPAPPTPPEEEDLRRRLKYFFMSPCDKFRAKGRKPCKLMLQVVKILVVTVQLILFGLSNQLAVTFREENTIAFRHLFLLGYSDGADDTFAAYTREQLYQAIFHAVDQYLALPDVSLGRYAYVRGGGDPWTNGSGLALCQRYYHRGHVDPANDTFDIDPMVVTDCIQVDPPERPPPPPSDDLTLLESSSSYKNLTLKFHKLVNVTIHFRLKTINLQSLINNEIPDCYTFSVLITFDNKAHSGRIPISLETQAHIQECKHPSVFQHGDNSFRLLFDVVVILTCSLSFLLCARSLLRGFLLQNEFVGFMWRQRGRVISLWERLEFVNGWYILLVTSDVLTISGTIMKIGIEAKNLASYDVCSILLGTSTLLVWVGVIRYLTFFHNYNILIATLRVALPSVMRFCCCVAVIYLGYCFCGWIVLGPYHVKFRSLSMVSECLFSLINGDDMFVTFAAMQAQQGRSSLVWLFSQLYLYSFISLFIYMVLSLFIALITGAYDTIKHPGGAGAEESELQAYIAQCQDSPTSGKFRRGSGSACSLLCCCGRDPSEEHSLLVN
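Agonist activity was taken from a 110 s kinetic Ca2+ dye read on the FDSS after pinning compounds onto TRPML1-DL cells. The cells were seeded at 1,500/well with Tet inducer, incubated about 16 h, then dye-loaded at room temperature.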
TRPML1 blocker: inhibitors of human TRPML1 channel. Q9GZU1. TRPML1-inducible cells, Ca2+ dye fluorescence, FDSS; active compounds read low; inhibition of EC80 agonist-evoked calcium signal. activity change, negative = inhibition, % (concentration not given with the values). hit rate 0.02% among 390,000. AID 624415; in the data active means activity change below about -50%; inconclusive means about -30% to -50%; inactive means above about -30%;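 note: stimulus is agonist 54-4 at its EC80 concentration; % is set by controls: 0 for no effect and ±100 for the full control effect; the text of the record puts the active cut at -80%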
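Tet-induced TRPML1-DL cells loaded with Ca8 no-wash calcium dye were read kinetically on FDSS. Compound addition was followed by EC80 agonist 54-4 (4 uM final); inhibition was read over 110 s.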
ClpP mod: qHTS Assay for Activators of ClpP. purified B. subtilis ClpP, FRET peptide cleavage, 20 min. ATP-dependent Clp protease proteolytic subunit (Bacillus subtilis (strain 168)), P80244. AID 651965, 2013. Potency, µM (doses to about 57.5 µM), without a hit: at the top dose activity change, negative = active. hit rate 1.9% among 340,000; active = well fitted falling curve with a large enough effect; inconclusive = small, poorly fitted or top-dose-only effect; inactive = no such curve, though single readings can be large or run the other way; note: potency is the fitted concentration of half-maximal effect; the source files actives as falling curves though it sought activators and does not explain the sign; nearly all actives have a fitted effect of over 65% in size; many hits overshoot -100%
Target sequence (P80244 whole entry, looked up): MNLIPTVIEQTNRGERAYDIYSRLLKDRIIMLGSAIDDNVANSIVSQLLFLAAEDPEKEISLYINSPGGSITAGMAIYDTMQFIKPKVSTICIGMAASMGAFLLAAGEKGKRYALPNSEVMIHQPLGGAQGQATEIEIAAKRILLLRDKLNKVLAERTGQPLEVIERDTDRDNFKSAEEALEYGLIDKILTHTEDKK
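ClpP 10 microg/mL final, pH 8 Tris/KCl buffer with BSA, glycerol, Tween-20; compound pinned in; FRET-FV substrate; RT 20 min; Ex320/Em430; ΔFRET vs ADEP 5.8 microM, DMSO, no enzyme.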
gsp antagonist: antagonists of gsp mutant (McCune-Albright syndrome). Potency, µM (doses to about 76.9 µM), without a hit: at the top dose activity change, negative = inhibition, hits mostly inhibitors. gsp-mutant cells, cAMP HTRF, 30 min; control for the full effect not named in the record. hit rate 0.4% among 340,000. AID 624288; active = falling curve of any shape with a large fitted effect; inconclusive = falling curve, mostly with a smaller effect; inactive = flat or rising curve; cell line not stated here;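 note: intracellular cAMP measured with PDE inhibitor Ro 20-1724 present during compound exposure; potency is the fitted concentration of half-maximal effect; % is set by controls: 0 for no effect and ±100 for the full control effect; nearly all actives have a fitted effect of over 65% in size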
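HTRF cAMP read-out (cAMP-d2 plus anti-cAMP antibody-K in lysis buffer, 30 min RT). Before lysis, cells are exposed to compounds with […] for 30 min at 37C in DPBS containing Ca/Mg, BSA and Tween 20.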
gsp agonist: agonists of gsp mutant (McCune-Albright syndrome) | Potency, µM (highest dose often 76.9 µM), for the others: at the top dose activation (cAMP increase), actives largely listed as activators | hit rate 0.13% among 340,000 | gsp mutant cells, cAMP HTRF, 30 min; control for the full effect not named in the record; active = well fitted activation curve with a large enough effect; inconclusive = small, poorly fitted or top-dose-only effect, or another doubt; inactive = no such curve, though single readings can be large or run the other way; cell line not stated here;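 note: phosphodiesterase inhibitor Ro 20-1724 added with compounds to block cAMP breakdown; potency is the fitted concentration of half-maximal effect; nearly all actives have a fitted effect of over 60% in size; about a fifth of the inactives were tested at one dose only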
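Cells stably selected in G418 were plated at 2000/well, grown 16-24 hr, then given compounds in DMSO with the PDE inhibitor […] (300 uM solution added) for 30 min at 37C; cAMP was read by HTRF.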
Menin MLL FP FL: displaces fluorescein MLL peptide from human menin; 290,000 tested, under 10 active; Fluorescence polarization, fluorescein-MLL peptide displacement from menin; FP activity change, % at 61.4 µM; AID 1766; inconclusive = falling polarisation curve, or a change in total fluorescence; inactive = total fluorescence flat and polarisation flat or rising; no compound was filed as active; the % refers to the polarisation; negative = inhibition;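 note: % of control where 0% means no effect; inhibitors lower the polarisation; unlabelled MLL peptide was the positive control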
An asterisk follows results filed as active; u = inconclusive; x = no result given; [ ] = dose if it differs, or a comment.

SMILES	TRPML1 agonist	TRPML1 blocker	ClpP mod	gsp antagonist	gsp agonist	Menin MLL FP FL
CCSc1nnc(NC(=O)C2CC=CCC2C(=O)O)s1 (configuration not stated)	1.7	-10	-1.8%	-2%	-3%	5.5
CCCC(NC(=O)c1c(C)noc1C)C12CC3CC(CC(C3)C1)C2 (configuration not stated)	0.2	-2	-1.7%	-11%	-9%[15.4 µM]	-4.1
COC(=O)c1ccc(NC(=O)CSc2nnc(-c3ccncc3)n2C)cc1	0.8	-7	-1.1%	6%	-22%	0.8
O=C(O)C1CC=CCC1C(=O)NC12CC3CC(CC(C3)C1)C2 (configuration not stated)	-0.5	-4	-0.6%	7%	-10%	4.5
CCOc1ccc(-c2cc(C(=O)O)c3ccccc3n2)cc1	-0.7	14	35µM*	1%	9%	0.5
Cc1c(CCC(=O)NC2CC2)c(=O)oc2cc(O)ccc12	x	x	4.2%	2%	x	1.5
CCCc1cc2nnc(SCC(=O)N(C)C3CCCCC3)n2c(N)n1	-0.3	41	x	7%	-11%[15.4 µM]	5.7
O=C(Oc1ccc2ccccc2c1Cl)N1CCCCCC1	2.5	-3	-0.9%	8%	12%[15.4 µM]	7.2
COc1cc2c(cc1NC(=O)COC(=O)[C@@H](NS(=O)(=O)c1ccccc1)C(C)C)oc1ccccc12	-0.5	32	-18%	u	-6%[15.4 µM]	4.8
COC(=O)CCCC(=O)N1CCCC(N(C)CCc2ccccc2)C1 (configuration not stated)	0.7	6	-3.5%	6%	7%	0.7
Cc1cc(C)nc(-n2ncc3c2CC(c2ccc(C(C)C)cc2)CC3=O)n1 (configuration not stated)	2.8	16	-1.1%	-5%	8%	3.7
CC(C(=O)NC1C=CS(=O)(=O)C1)N1C(=O)/C(=C/c2ccc(Cl)cc2)SC1=S (configuration not stated)	0.1	-2	3.0%	-29%	-34%[inhibitor]	1.5
COc1ccc(NC(=O)C2CCN(C(=O)Nc3ccc(C)cc3)CC2)cc1OC	0.4	-7	x	1%	-98%[inhibitor]	2.2
COc1ccc(-n2ccnc2SCC(=O)NC2CCCC2)cc1	0.0	-3	-0.1%	16%	12%	x
O=C(CCNS(=O)(=O)c1ccccc1C(F)(F)F)N1CCN(S(=O)(=O)c2cccc(Cl)c2)CC1	0.2	-9	-0.7%	-16%	-8%	x
Cc1cccc(NC(=S)N2CCN(c3ccc(F)cc3)CC2)c1	-1.0	-3	x	-6%	-21%	-8.8
COc1ccc(N(CC(=O)NC2CCCCC2)S(=O)(=O)c2c(C)[nH]c(=O)[nH]c2=O)cc1	-0.3	-13	-0.5%	5%	-46%[inhibitor]	-1.0
Cc1cccc(NC(=O)/C=C/c2cccs2)n1	0.7	-2	-0.7%	-6%	12%	8.2
CCc1ccc(OCC(=O)NNC(=O)c2ccc(-n3cncn3)c([N+](=O)[O-])c2)cc1	0.5	29	-2.0%	-6%	-12%	x
O=C(COC(=O)c1oc2ccccc2c1CSc1ccc(Cl)cc1)NC1CCCC1	0.7	4	-3.1%	-9%	-9%	4.9
COc1ccc(-c2cc3ccc(O)c(CN4CCCC(C)C4)c3oc2=O)cc1 (configuration not stated)	2.1	17	3.5%	x	x	x
CSc1ccc(CCNC(=O)C(C)n2c(C)c3cnn(-c4ccccc4)c(=O)c3c2C)cc1 (configuration not stated)	0.6	11	-0.3%	x	x	x
Cc1ccc(CNC(=O)CSc2nc3ccccc3c(=O)n2CC2CCCO2)cc1 (configuration not stated)	-0.5	0	-23%	-8%	8%	x
CCCCN(C)C(=O)c1oc2ccc(S(=O)(=O)N3CCCCCC3)cc2c1C	1.2	27	-1.5%	u	-45%	-2.4
NS(=O)(=O)c1ccc(CCNC(=O)CNC(=O)c2ccccc2F)cc1	-0.5	-6	x	-6%	5%[15.4 µM]	x
CC1CCN(CCOCCSc2ccc(Cl)cc2)CC1	0.2	-8	0.9%	8%	-46%[inhibitor]	7.1
O=C(NCc1ccncc1)Nc1ccc2c(c1)OCO2	0.0	23	x	6%	-5%[15.4 µM]	0.6
CN(C)CCN(C(=O)CN1C(=O)c2ccccc2C1=O)c1nc2cc3c(cc2s1)OCCO3	0.6	-29	0.6%	11%	-1%[15.4 µM]	x
CC(C)OC(=O)C1C(=O)CC(C)(O)C(C(=O)OC(C)C)C1c1ccccc1 (configuration not stated)	-0.3	-7	x	-1%	-2%	-2.2
COc1ccc(-n2nc(C(=O)N(C)c3cccc(C(F)(F)F)c3)c3c4ccccc4n(C)c3c2=O)cc1	2.9	-8	1.4%	x	x	x
CC1=Nc2cc(Cl)ccc2Oc2ccccc21	-1.2	6	x	9%	-2%[15.4 µM]	-0.5
CN(C)c1ccc(NC(=O)c2sc(SCC(=O)Nc3nccs3)nc2N)cc1	2.7	-5	-1.4%	u	u	4.8
COc1ccccc1CNC(=O)[C@@H](NC(=O)C1CCN(C(=O)[C@@H]2CCCN2C(=O)OC(C)(C)C)CC1)C(C)C	x	x	-3.3%	0%	x	1.3
COc1ccc2oc(=O)c(/C(C)=N/Nc3ccccc3)cc2c1	1.9	-10	-14%	0%	5%	-0.5
CCOc1ccc(NC(=O)CN(C)C(=O)c2ccc3c(c2)S(=O)(=O)N=C2CCCCCN23)cc1OCC	0.1	-1	-1.0%	17%	4%	x
Cc1ccc(NS(=O)(=O)c2cc(C(=O)O)ccc2Cl)c(C)c1	-1.0	2	-0.1%	-10%	3%	0.4

Entries shown so far with a CF3 group:
SMILES	TRPML1 agonist	TRPML1 blocker	ClpP mod	gsp antagonist	gsp agonist	Menin MLL FP FL
O=C(CCNS(=O)(=O)c1ccccc1C(F)(F)F)N1CCN(S(=O)(=O)c2cccc(Cl)c2)CC1	0.2	-9	-0.7%	-16%	-8%	x
COc1ccc(-n2nc(C(=O)N(C)c3cccc(C(F)(F)F)c3)c3c4ccccc4n(C)c3c2=O)cc1	2.9	-8	1.4%	x	x	x

Additional compounds:
SMILES	TRPML1 agonist	TRPML1 blocker	ClpP mod	gsp antagonist	gsp agonist	Menin MLL FP FL
Cc1cc(C)cc(Cn2c3ccc(NC(=O)NCc4ccccc4)cc3c(=O)n2C)c1	0.6	u	4.9%	x	x	x
CCc1nnc(NC(=O)Cc2ccc(OC)c(S(=O)(=O)N3CCOCC3)c2)s1	-0.9	2	0.2%	x	-17%	x
Cc1cc(C)n2nc(SCCCC(=O)c3ccccc3)nc2n1	-0.2	-2	x	7%	-6%[15.4 µM]	-0.1
CCOCCCNC(=O)CN1CCN(Cc2ccc(Cl)cc2)C1=O	-0.9	-9	-2.4%	10%	-5%[15.4 µM]	5.1
CC1CCN(C(=O)c2ccc(S(=O)(=O)N3CCOCC3)cc2)CC1	-0.3	7	x	9%	9%[15.4 µM]	0.4
CCOC(=O)CSc1ccccn1	0.2	-6	1.7%	-10%	u	-0.8
CCc1ccc(CNC(=O)Cn2nc(C)n3c(cc4cc(C)ccc43)c2=O)cc1	0.5	18	u	x	x	x
COc1cccc(CN2C(=O)c3ccccc3C2C(=O)NCCc2ccccc2)c1 (configuration not stated)	2.7	-1	0.6%	x	x	x
CC(Nc1nc(-c2ccc(F)cc2)cs1)c1nc2cc(C(F)(F)F)ccc2n1CCCO (configuration not stated)	-0.7	8	-2.2%	-12%	14%	x
CS(=O)(=O)N(CCc1ccccc1)CC(=O)Nc1ccc2c(c1)OCO2	0.1	21	-3.8%	-15%	4%	-2.2
CCOc1ccc(NC(=O)CCN2C(=O)CSc3ccccc32)cc1	-0.6	-6	-1.4%	3%	-24%	x
Nc1[nH]ncc1-c1ccc(Cl)cc1	-1.2	9	1.5%	8%	0%[15.4 µM]	2.0
c1ccc2c(-c3nnc4n3CCCCC4)cc(-c3ccncc3)nc2c1	0.6	7	-7.2%	2%	17%	4.8
Cc1cnc(C(=O)N2CCCC(C(=O)c3ccc(Cl)cc3C)C2)cn1 (configuration not stated)	x	x	-2.6%	-1%	0%	-2.2
CCN(CC)S(=O)(=O)c1ccc2c(c1)N(CC(=O)Nc1cccc(C#N)c1)C(=O)CO2	0.0	-9	-1.0%	x	x	x
O=C(c1ccco1)N1CCN(S(=O)(=O)Cc2ccccc2Cl)CC1	0.8	28	x	2%	11%	-1.1
Cc1ccc(OCC(=O)N/N=C/c2ccncc2)cc1C	0.0	6	-17%	-9%	1%[15.4 µM]	-1.8
Cc1nc(-c2nc(C(=O)NNS(C)(=O)=O)cs2)cs1	-0.4	-14	-0.8%	-6%	4%[15.4 µM]	0.2
COc1[nH]c2ccc(F)cc2c1C(=O)OCC1CCN(CCNS(C)(=O)=O)CC1	0.1	-28	0.2%	-1%	x	u
CS(=O)(=O)CCC(C(=O)OCc1ccc(Br)cc1)N1C(=O)c2ccccc2C1=O (configuration not stated)	2.2	3	1.5%	-8%	1%	2.6
O=C(CCN1c2ccccc2Sc2ccccc21)OCC(=O)N1CCN(C(=O)c2ccco2)CC1	1.0	5	-4.4%	u	-49%[inhibitor]	2.8
CCC(CC)CN1CCC(CN2C(=S)NC[C@@H]2[C@@H](C)CC)CC1	-0.7	-2	-0.3%	6%	x	x
COc1ccc2c(c1)C(c1cccs1)=NNC(c1ccncc1)=N2	0.2	-3	2.6%	-24%	-25%	4.4
COC(=O)C(C)N1C(=O)S/C(=C/c2cc(C)n(C(C)C)c2C)C1=O (configuration not stated)	-1.0	2	-2.2%	u	-35%[inhibitor]	5.4
CCOc1ccc(C2C(C(=O)OC)=C(C)NC3=C2C(=O)c2ccccc23)cc1OC (configuration not stated)	-0.2	9	0.1%	x	x	x
CN(CC(=O)Nc1ccc(Cl)c(Cl)c1)C(=O)CN1C(=O)NC2(CCCC2)C1=O	-0.2	6	x	-8%	17%[15.4 µM]	x
Cc1cc(/N=C/C=C2/N(C)c3ccccc3C2(C)C)n(CCC#N)n1	-0.3	-10	x	-11%	1%	x
CCOC(=O)c1c(C)n(C)c2ccc(OC)c([N+](=O)[O-])c12	0.1	-3	1.6%	u	-18%	4.5
COc1ccc(C(=O)N2CCN(Cc3ccc4c(c3)OCO4)CC2)cc1[N+](=O)[O-]	-0.1	-19	x	-2%	-32%[inhibitor]	0.9
COc1cc(C(C)=O)ccc1OCC(O)CNCC1(N2CCCCC2)CCCCC1 (configuration not stated)	-0.5	4	-14%	3%	28%	-0.9
Cc1nn(CCC(=O)NCCc2ccccc2Cl)c(=O)c2nn(-c3ccccc3)c(C)c12	1.2	0	-3.3%	-18%	1%	x
COc1ccc(OC)c(N2Cc3cc(C)c(C)cc3C2)c1	0.9	-5	-2.4%	-1%	-43%	0.1
COc1cccc(-n2c(=O)c3sc4ccccc4c3n(CC(=O)Nc3ccc(F)cc3F)c2=O)c1	0.1	-6	3.0%	x	x	x
CCOc1ccc(N(C)S(=O)(=O)c2ccc(C)c(C(=O)N3CCN(Cc4ccc5c(c4)OCO5)CC3)c2)cc1	1.2	6	0.9%	-35%	26%[15.4 µM]	x

Hits appear at their usual frequency (roughly 2.1% active in at least one column).
